# High-throughput results (PubChem)
# Menin-MLL FL inh = inhibitors of human menin-MLL interaction, wild-type MLL peptide | Fluorescence polarization, fluorescein-MLL peptide displacement from menin | FP activity change, % at 61.4 µM | 290,000 tested, under 10 active; inconclusive = falling polarisation curve, or a change in total fluorescence; inactive = total fluorescence flat and polarisation flat or rising; no compound was filed as active; the % refers to the polarisation; negative = inhibition;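 further: % of control where 0% means no effect; inhibitors lower the polarisation; unlabelled MLL peptide was the positive control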
# gsp agonist = activates gsp, the McCune-Albright syndrome mutation; gsp mutant cells, cAMP HTRF, 30 min; control for the full effect not named in the record; Potency, µM (doses to about 76.9 µM), for inactives: at the top dose activation (cAMP increase), most hits filed as activators; actives 0.13% (n = 340,000); active = well fitted activation curve with a large enough effect; inconclusive = small, poorly fitted or top-dose-only effect, or another doubt; inactive = no such curve, though single readings can be large or run the other way; cell line not stated here;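 further: phosphodiesterase inhibitor Ro 20-1724 added with compounds to block cAMP breakdown; potency means the concentration at half of the fitted maximal effect; nearly all actives have a fitted effect of over 60% in size; about a fifth of the inactives were tested at one dose only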
#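 Cells in DMEM/10% FBS with G418 were pretreated with compounds in DMSO plus […] (300 uM stock) for 30 min at 37C. cAMP was measured by HTRF (cAMP-d2 plus anti-cAMP antibody-K) after 30 min at room temperature.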
# TRPML1 agonist = human mucolipin-1 channel agonism; Q9GZU1; actives 0.12% (n = 410,000); activation, % (concentration not given with the values); AID 624414; TRPML1-expressing cells, Ca2+ dye fluorescence, FDSS; host cell line not named in the record; reference of the full effect not given here; in the data active = activation above about 50%; inconclusive = about 30% to 50%; inactive = below about 30%; further: 0% is about no effect; the text of the record puts the active cut at 80%
# Target sequence (Q9GZU1 whole entry, looked up): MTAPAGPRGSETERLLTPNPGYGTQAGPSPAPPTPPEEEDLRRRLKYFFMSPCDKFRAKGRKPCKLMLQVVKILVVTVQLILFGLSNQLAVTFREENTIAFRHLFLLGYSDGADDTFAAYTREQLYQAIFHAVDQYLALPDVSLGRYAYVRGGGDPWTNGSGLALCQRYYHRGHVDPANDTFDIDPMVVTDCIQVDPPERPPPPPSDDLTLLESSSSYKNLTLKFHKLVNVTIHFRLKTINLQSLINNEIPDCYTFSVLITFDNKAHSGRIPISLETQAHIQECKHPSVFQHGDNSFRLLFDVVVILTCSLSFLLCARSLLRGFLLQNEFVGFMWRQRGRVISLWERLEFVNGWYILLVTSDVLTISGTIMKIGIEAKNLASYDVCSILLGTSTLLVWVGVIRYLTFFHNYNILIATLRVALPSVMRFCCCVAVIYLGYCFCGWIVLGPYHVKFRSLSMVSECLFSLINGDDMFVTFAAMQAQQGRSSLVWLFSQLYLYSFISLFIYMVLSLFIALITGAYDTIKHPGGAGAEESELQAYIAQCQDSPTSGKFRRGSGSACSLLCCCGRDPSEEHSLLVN
#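 TRPML1-DL cells, Tet-induced overnight (~16 h, 37 degrees C), loaded 45-90 min at room temperature with Ca8 no-wash calcium dye plus quencher. FDSS fluorescence: 10 s baseline, compound pin-transfer, 110 s agonist read, then EC80 54-4 (4uM final) and 110 s antagonist read.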
# TRPML1 blocker = human mucolipin-1 channel inhibition; actives 0.02% (n = 390,000); TRPML1-inducible cells, Ca2+ dye fluorescence, FDSS; active compounds read low; inhibition of EC80 agonist-evoked calcium signal; activity change, negative = inhibition, % (test concentration not listed); AID 624415; in the data active means activity change below about -50%; inconclusive means about -30% to -50%; inactive means above about -30%;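 further: stimulus is agonist 54-4 at its EC80 concentration; on the % scale 0 is the no-effect control and ±100 the full control effect; compound concentration not given in the record; the text of the record puts the active cut at -80%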
#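 Tet-induced TRPML1-DL cells loaded with Ca8 no-wash calcium dye were read kinetically on FDSS. Compound addition was followed by EC80 agonist 54-4 (4 uM final); inhibition was read over 110 s.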
# ClpP mod = qHTS Assay for Activators of ClpP | ATP-dependent Clp protease proteolytic subunit (Bacillus subtilis (strain 168)), P80244 | purified B. subtilis ClpP, FRET peptide cleavage, 20 min | Potency, µM (highest dose often 57.5 µM), for inactives: at the highest dose activity change, negative = active | actives 1.9% (n = 340,000); active = well fitted falling curve with a large enough effect; inconclusive = small, poorly fitted or top-dose-only effect; inactive = no such curve, though single readings can be large or run the other way; further: potency means the concentration at half of the fitted maximal effect; the source files actives as falling curves though it sought activators and does not explain the sign; nearly all actives have a fitted effect of over 65% in size; many hits overshoot -100%
# Target sequence (P80244 whole entry, looked up): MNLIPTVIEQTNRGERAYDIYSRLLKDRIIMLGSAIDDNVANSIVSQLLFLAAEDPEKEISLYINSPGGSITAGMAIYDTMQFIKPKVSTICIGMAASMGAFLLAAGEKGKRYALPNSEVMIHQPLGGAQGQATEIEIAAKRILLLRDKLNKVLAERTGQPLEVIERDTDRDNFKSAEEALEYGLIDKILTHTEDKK
#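 Buffer: 100 mM Tris/HCl pH8, 100 mM KCl, 0.05% low protease BSA, 2.5% glycerol, 0.01% Tween-20. ClpP 10 microg/mL final; 20 min RT; delta FRET normalized to ADEP and DMSO controls.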
# gsp antagonist = antagonizes gsp, the McCune-Albright syndrome mutation | gsp-mutant cells, cAMP HTRF, 30 min; control for the full effect not named in the record | Potency, µM (doses to about 76.9 µM), for inactives: at the highest dose activity change, negative = inhibition, actives largely listed as inhibitors | actives 0.4% (n = 340,000); active = falling curve of any shape with a large fitted effect; inconclusive = falling curve, mostly with a smaller effect; inactive = flat or rising curve; cell line not stated here;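 further: intracellular cAMP measured with PDE inhibitor Ro 20-1724 present during compound exposure; potency means the concentration at half of the fitted maximal effect; on the % scale 0 is the no-effect control and ±100 the full control effect; nearly all actives have a fitted effect of over 65% in size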
#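 G418-selected cells were plated in DMEM/10% FBS for 16-24 h at 37C, then treated with compounds plus the PDE inhibitor […] (300 uM solution added) for 30 min at 37C. Intracellular cAMP was measured by HTRF after 30 min lysis at room temperature.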
# Active calls of the source: *; ? = inconclusive; . = no result given; [ ] = dose if it differs, or a comment.
SMILES,Menin-MLL FL inh,gsp agonist,TRPML1 agonist,TRPML1 blocker,ClpP mod,gsp antagonist
N#Cc1ccc(COC(=O)c2ccc3c(=O)[nH]c(CN4CCOCC4)nc3c2)cc1,1.1,-24%,-0.3,6,-1.2%,9%
CCCC1(C(=O)OC)NC(c2ccco2)C2C(=O)N(c3ccc(C)cc3)C(=O)C21 (stereo not drawn),2.6,6%,0.0,13,0.9%,9%
O=C(C1CCCCC1)N1CCC(c2nc3c(nnn3Cc3ccccc3Cl)c(=O)[nH]2)CC1,.,-33%[inhibitor],-0.4,-1,0.5%,-17%
CCOc1ccc(CNC(=O)Cn2ccc3cc(S(=O)(=O)N4CCCC4)ccc32)cc1,2.3,15%,2.1,25,-1.4%,-4%
O=C(Cn1cnc2c(nnn2Cc2ccc(F)cc2)c1=O)NCC1CCCO1 (stereo not drawn),3.9,?,0.3,11,-2.4%,4%
CCCCc1ccc(-n2nc3ccc(NC(=O)c4cc5ccccc5o4)cc3n2)cc1,.,.,-1.2,9,4.1%,.
CCN(CC)S(=O)(=O)c1ccc2nc(NC(=O)c3ccccc3OC)sc2c1,.,.,0.9,7,-2.7%,.
COc1ccccc1NC(=O)Cn1cnc2c(oc3nc4c(cc32)CCCC4)c1=O,0.4,29%,0.6,2,-9.2%,-21%
O=C(Nc1ccc2c(c1)OCCO2)c1ccc(CN2CCOCC2)cc1,-0.4,-47%[inhibitor],-0.5,-7,0.7%,0%
CCC1CCCCN1S(=O)(=O)Cc1ccccc1Cl (stereo not drawn),17,-3%,3.3,15,.,2%
COc1cccc(NC(=O)N(C)C[C@@H]2Oc3ncc(Br)cc3C(=O)N([C@@H](C)CO)C[C@H]2C)c1,.,-73%[inhibitor],-0.5,-10,0.4%,.
Cn1ncc([N+](=O)[O-])c1C(=O)Nc1ccc(-c2nc3ccccc3[nH]2)cc1,2.5,-14%,0.8,3,-0.8%,?
CC(=O)Nc1ccc(C(=O)Nc2ccc(S(=O)(=O)N3CCOCC3)cc2)cc1,-0.1,-12%,-0.1,11,0.1%,0%
O=C(c1cc2c(ccc3ccccc32)oc1=O)N1CCN(CCO)CC1,2.9,?,0.4,-14,4.2%,6%
Cc1ccc(O)c(Nc2c3ccccc3nc3ccccc23)c1,-12,-1%[15.4 µM],-0.8,10,-1.6%,-9%
O=C(NCCCN1CCOCC1)c1ccc(CSCc2cccc(Cl)c2)o1,2.9,18%,-0.3,5,.,7%
O=C(OCc1nnc(-c2ccccc2)o1)c1ccc([N+](=O)[O-])s1,.,-37%[inhibitor],-0.2,-2,-2.8%,-7%
COc1cc(CNCCN(C)C)ccc1OCc1c(F)cccc1Cl,-1.2,44%,-0.3,-2,.,9%
CC1CCCCN1CCCNc1ccc(C(CC(N)=O)NC(=O)Cc2ccc(Cl)cc2)cc1[N+](=O)[O-] (stereo not drawn),-6.8,.,-0.5,1,2.0%,8%
COc1ccc(NC(=O)CSc2nc3[nH]ncc3c(=O)n2-c2ccccc2OC)cc1OC,5.6,?,-0.8,1,-1.8%,7%
CC(C)/C=C1\CCCCC1N(C)C(=O)NC(C)C (stereo not drawn),3.1,-29%,-1.0,-2,1.3%,-8%
NC(=O)c1ccc(Oc2ccc3c(c2)CCC3)c([N+](=O)[O-])c1,-0.8,7%[15.4 µM],2.7,22,.,-9%
Cc1ccc(S(=O)(=O)NC(=O)Nc2cccc([N+](=O)[O-])c2)cc1,.,15%[15.4 µM],-0.1,3,.,11%
Cn1c2ccccc2c2nnc(SCC(=O)Nc3ccccc3F)nc21,-1.9,?,-0.4,-4,1.2%,3%
CCCC(=O)NC(c1ccco1)c1cc([N+](=O)[O-])c2cccnc2c1O (stereo not drawn),-5.6,10%[15.4 µM],1.2,2,.,-16%
CCOC(=O)c1c(NC(=O)CN2C(=O)NC3(CCCCC3C)C2=O)sc(C)c1C (stereo not drawn),6.1,-54%[inhibitor],1.7,24,-2.8%,-2%
O=C(O)c1cc2ccccc2[nH]1,-1.8,.,.,.,4.2%,4%
O=C(OCC(=O)N1CCOCC1)c1c(Cl)ccc(Cl)c1Cl,-2.5,?,1.0,-8,-0.9%,8%
Cc1c(Cl)cccc1NC(=O)Nc1ccc(C(=O)N2CCCC2)cc1,4.0,12%,3.8,-6,-4.9%,-1%
COCCCNC(=O)Cn1ccc(N)nc1=O,.,.,-0.3,-7,1.0%,12%

# Looked up by compound from above:
SMILES,Menin-MLL FL inh,gsp agonist,TRPML1 agonist,TRPML1 blocker,ClpP mod,gsp antagonist
COc1ccc(NC(=O)CSc2nc3[nH]ncc3c(=O)n2-c2ccccc2OC)cc1OC,5.6,?,-0.8,1,-1.8%,7%
Cn1ncc([N+](=O)[O-])c1C(=O)Nc1ccc(-c2nc3ccccc3[nH]2)cc1,2.5,-14%,0.8,3,-0.8%,?
O=C(C1CCCCC1)N1CCC(c2nc3c(nnn3Cc3ccccc3Cl)c(=O)[nH]2)CC1,.,-33%[inhibitor],-0.4,-1,0.5%,-17%
O=C(c1cc2c(ccc3ccccc32)oc1=O)N1CCN(CCO)CC1,2.9,?,0.4,-14,4.2%,6%
CCCC1(C(=O)OC)NC(c2ccco2)C2C(=O)N(c3ccc(C)cc3)C(=O)C21 (stereo not drawn),2.6,6%,0.0,13,0.9%,9%
O=C(O)c1cc2ccccc2[nH]1,-1.8,.,.,.,4.2%,4%

# (further entries)
SMILES,Menin-MLL FL inh,gsp agonist,TRPML1 agonist,TRPML1 blocker,ClpP mod,gsp antagonist
O=C(CSc1nnnn1Cc1ccccc1)Nc1ccc2c(c1)OCCO2,-0.3,0%,-1.3,0,-0.7%,-4%
Cc1cccn2c(=O)c(/C=C3\SC(=S)NC3=O)c(NCCCN3CCOCC3)nc12,?,10µM*,3.5,20,-4.6%,16%
CC(=O)N1NC(=Nc2ccccc2)SC1(C)C,-2.4,-2%[15.4 µM],0.6,-13,0.0%,1%
O=C(OCC(=O)N1CCN(c2ccccc2)CC1)c1ccccc1NCCO,.,-4%[15.4 µM],0.6,8,.,4%
CN(c1ccccc1)S(=O)(=O)c1cc(C(=O)Nc2nc3ccccc3[nH]2)ccc1Cl,6.7,-30%[inhibitor],0.5,4,-27%,-22%
COC(=O)c1noc(C)c1-c1ccnn1C(=O)c1ccc(C)cc1,3.2,9%[15.4 µM],1.5,-6,.,-18%
C#CCOCCOCCOCCNc1nc(N2CCN(C(=O)CCCCCCCCCCNC(=O)[C@H](CCCCN)n3cc(C[C@@H](C)CC)nn3)CC2)nc(N2CCN(C(=O)CCCCCCCCCCNC(=O)[C@H](CCCN=C(N)N)n3cc(C[C@@H](C)CC)nn3)CC2)n1,.,.,1.2,4,0.1%,-18%
CCOc1cc(C2C(C#N)=C(N)OC(C)=C2C(C)=O)cc(Br)c1O (stereo not drawn),?,-29%,13,-2,-14%,-4%
CCCN1CCN(CCCNC(=O)Cn2nc(-c3ccccc3)ccc2=O)CC1,2.5,-37%[inhibitor],-0.6,1,-2.3%,-4%
COc1ccccc1C(CNC(=O)c1ccco1)N1CCCC1 (stereo not drawn),.,?,-0.1,-13,1.3%,7%
CC(=O)Nc1ccc(C(=O)CS(=O)(=O)c2ccc(C)cc2)cc1,0.3,16%,-0.5,4,-2.1%,3%
O=C1OC(C(=O)Nc2nccs2)Cc2ccccc21 (stereo not drawn),3.3,-13%,-0.7,-19,0.1%,6%
CSc1cccc(CN2CCCC(C(=O)Nc3cccc(-n4cccn4)c3)C2)c1 (stereo not drawn),.,?,1.5,41,-23%,-13%
CCN(CC)CCn1c(=N)n(CC(O)COc2ccccc2C)c2ccccc21 (stereo not drawn),.,.,1.1,29,0.7%,.
CCOc1ccc(-n2c(SCc3ccc([N+](=O)[O-])cc3)nnc2-c2ccccc2)cc1,-0.8,-21%,2.8,6,3.0%,-21%
Cn1nc(-c2ccccc2F)c2cc(C(=O)N3CCN(c4ccc(F)cc4)CC3)sc21,.,.,1.9,26,-13%,.
CSc1ccccc1NC(=O)c1ccc(Cl)s1,0.8,-16%,-0.8,-3,0.1%,-6%
COc1ccc(-c2csc(NC(=O)CCCc3nc4ccccc4c(=O)[nH]3)n2)cc1OC,.,-22%,0.9,-7,0.5%,3%
CC(Sc1nnnn1-c1ccc(Cl)cc1)C(=O)NCC(=O)Nc1ccc(F)c(F)c1F (stereo not drawn),1.5,-44%,0.0,5,25µM*,-14%
COc1cccc(N(C(=O)c2snc(C(N)=O)c2N)C(C(=O)NCC2CCCO2)c2ccc3ncccc3c2)c1 (stereo not drawn),.,-3%[15.4 µM],0.3,11,.,-17%
CC(NC(=S)NCCN1CCOCC1)C12CC3CC(CC(C3)C1)C2 (stereo not drawn),-1.9,11%[15.4 µM],1.2,0,.,-1%
COC(=O)c1ccc(NC(=O)c2ccc(NS(=O)(=O)c3cccc4cccnc34)cc2)cc1,0.0,-6%,2.2,-3,.,-16%
COc1ccc(N2CC(NS(=O)(=O)c3cccs3)CC2=O)cc1OC (stereo not drawn),.,19%[15.4 µM],0.2,-10,.,5%
CCCc1cc(C(=O)NC2CCCN(Cc3ccccc3F)C2)no1 (stereo not drawn),.,-18%,-0.1,7,1.4%,-13%
Cc1ccccc1CCNC(=O)C1CCCN(c2cnccn2)C1 (stereo not drawn),-2.6,23%,-1.1,-1,-12%,4%
O=S(=O)(c1cccc2cnccc12)N1CCNCC1,22,.,2.3,0,-19%,4%
O/N=C(\c1ccccn1)C1CC1c1ccccc1 (stereo not drawn),-1.7,36%,0.5,7,.,7%
O=C(C1CCC1)N1CCc2cc(S(=O)(=O)NCc3ccc(F)cc3)ccc21,.,.,-0.1,2,-1.3%,.
CCOc1ccc(-n2nc(C(=O)NC3CCCCC3)c3ccccc3c2=O)cc1,1.0,?,-1.2,20,-2.4%,0%
CCc1cccc(C)c1NC(=O)C1CCN(S(=O)(=O)Cc2ccccc2)CC1,.,.,-0.7,-1,0.3%,.
O=C(c1ccc(N2CCCC2)c([N+](=O)[O-])c1)N1CCN(CCO)CC1,-3.9,-34%,1.8,-6,0.2%,30%
CCCCn1c(N)c(N(CCOC)C(=O)c2cc(-c3ccccc3)nc3ccccc23)c(=O)[nH]c1=O,.,-4%[15.4 µM],-0.5,-5,-8.5%,9%
O=C(Nc1ccccc1)C1=C(Nc2ccccc2)CSC1,.,-26%,0.1,17,0.5%,.
Cc1ccc(Cn2nnc3c(=O)n(CC(=O)NCC4CCCO4)cnc32)cc1 (stereo not drawn),5.8,?,0.3,4,1.5%,7%
